Sfp inh – Sfp phosphopantetheinyl transferase inhibition; Q9F4F7; Biochemical Sfp PPTase activity, qHTS; AID 1490; 3.5% of 310,000 active; Potency, µM, inactives show max response, negative = inhibition, usual class: inhibitors; active means well fitted inhibition curve with a large enough effect; inconclusive means small, poorly fitted or top-dose-only effect, or another doubt; inactive means no such curve, though single readings can be large or run the other way;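 further: the enzyme is Sfp with the accession as filed and its product quenches rhodamine fluorescence; potency means the concentration at half of the fitted maximal effect; 0% = enzyme reaction without inhibitor and -100% = no enzyme wells; top concentration of the series not given in the record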
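After 15 min at room temperature with compound, 15 nM Sfp received 5 uM rhodamine-CoA plus 12.5 uM BHQ-2-ybbR (50 mM Hepes pH 7.6, 10 mM MgCl2). Rate came from the fluorescence difference over 30 min, ex 525/em 598 nm.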
TRPV1 potentiator – enhances activation of the human vanilloid receptor TRPV1. Q8NER1. TRPV1-expressing cells, Fluo-8 calcium influx, capsaicin EC20 potentiation; host cell line not named in the record; control for the full effect not named in the record. potentiation, % at 8.33 µM. 0.02% of 320,000 active; active means potentiation above 80%; inconclusive means 30% to 80%; inactive means below 30%; further: 0% is about no effect
Target sequence (Q8NER1 whole entry, looked up): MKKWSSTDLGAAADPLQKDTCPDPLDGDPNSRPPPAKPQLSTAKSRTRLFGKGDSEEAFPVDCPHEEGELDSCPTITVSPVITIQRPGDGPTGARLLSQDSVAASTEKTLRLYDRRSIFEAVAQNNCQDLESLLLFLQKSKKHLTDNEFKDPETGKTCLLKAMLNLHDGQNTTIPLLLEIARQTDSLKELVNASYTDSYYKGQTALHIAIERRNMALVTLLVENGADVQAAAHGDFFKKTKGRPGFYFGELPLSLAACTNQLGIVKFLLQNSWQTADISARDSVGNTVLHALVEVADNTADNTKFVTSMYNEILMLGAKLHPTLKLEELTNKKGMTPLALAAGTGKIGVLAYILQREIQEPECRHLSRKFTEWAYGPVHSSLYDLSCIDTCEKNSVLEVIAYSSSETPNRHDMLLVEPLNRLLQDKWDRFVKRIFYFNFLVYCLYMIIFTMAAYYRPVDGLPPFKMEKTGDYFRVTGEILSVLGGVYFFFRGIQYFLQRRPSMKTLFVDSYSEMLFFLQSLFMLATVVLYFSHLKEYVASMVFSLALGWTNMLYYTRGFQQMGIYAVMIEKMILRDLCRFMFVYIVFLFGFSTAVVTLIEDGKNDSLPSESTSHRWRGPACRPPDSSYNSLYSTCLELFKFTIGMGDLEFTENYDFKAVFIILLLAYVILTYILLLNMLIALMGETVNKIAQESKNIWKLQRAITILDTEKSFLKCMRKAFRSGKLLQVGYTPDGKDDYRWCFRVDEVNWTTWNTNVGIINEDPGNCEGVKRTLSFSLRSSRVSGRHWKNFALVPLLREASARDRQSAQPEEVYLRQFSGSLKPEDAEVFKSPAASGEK
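Fluo-8 calcium influx in TRPV1-expressing cells, kinetic read (ex 480/em 520 nm). Compound added and read 3 min for agonist activity, followed by capsaicin at EC20 final and 2 min further read for enhancement.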
gsp antagonist – gsp mutant antagonism; gsp-mutant cells, cAMP HTRF, 30 min; control for the full effect not named in the record; Potency, µM (series often up to 76.9 µM), without a hit: top-dose activity change, negative = inhibition, hits mostly inhibitors; 0.4% of 340,000 active; active = falling curve of any shape with a large fitted effect; inconclusive = falling curve, mostly with a smaller effect; inactive = flat or rising curve; cell line not stated here;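 further: intracellular cAMP measured with PDE inhibitor Ro 20-1724 present during compound exposure; potency means the concentration at half of the fitted maximal effect; on the % scale 0 is the no-effect control and ±100 the full control effect; nearly all actives have a fitted effect of over 65% in size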
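Cells, 2000/well, grown 16–24 h in DMEM 10% FBS with 0.5 mg/ml G418, then compounds plus […] (300 uM addition stock), 30 min at 37C. cAMP read by HTRF (cAMP-d2 and anti-cAMP antibody-K in lysis buffer) after 30 min RT.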
gsp ag – activates gsp, the McCune-Albright syndrome mutation; gsp mutant cells, cAMP HTRF, 30 min; control for the full effect not named in the record; Potency, µM (series often up to 76.9 µM), for the others: top-dose activation (cAMP increase), most hits filed as activators; 0.13% of 340,000 active; active = well fitted activation curve with a large enough effect; inconclusive = small, poorly fitted or top-dose-only effect, or another doubt; inactive = no such curve, though single readings can be large or run the other way; cell line not stated here;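 further: phosphodiesterase inhibitor Ro 20-1724 added with compounds to block cAMP breakdown; potency means the concentration at half of the fitted maximal effect; nearly all actives have a fitted effect of over 60% in size; about a fifth of the inactives were tested at one dose only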
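Cells in DMEM/10% FBS with G418 were pretreated with compounds in DMSO plus […] (300 uM stock) for 30 min at 37C. cAMP was measured by HTRF (cAMP-d2 plus anti-cAMP antibody-K) after 30 min at room temperature.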
CtBP-E1A blk – CtBP/E1A binding inhibition; activity change, % (no concentration beside the values); 0.49% of 340,000 active; AlphaScreen GST-E1A/His-CtBP binding, 1536-well; hits give low values; control for the full effect not named in the record; in the data active means activity change below about -65%; inconclusive means about -30% to -65%; inactive means above about -30%; further: on the % scale 0 is the no-effect control and ±100 the full control effect; compound concentration not given in the record
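Steps: dispense buffer (Tris pH 8.0, NaCl 300 mM, TCEP 1 mM, BSA, Tween 20); add 5X protein mix (GST-E1A, His-CtBP, 125 nM each); pin 23 nL compound; 2 h at 37 °C, dark; add 5X beads (50 ug/mL); 1 h; read.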
Menin-MLL FL inh – inhibitors of human menin-MLL interaction, wild-type MLL peptide. Fluorescence polarization, fluorescein-MLL peptide displacement from menin. FP activity change, % at 61.4 µM. 290,000 tested, under 10 active; inconclusive = falling polarisation curve, or a change in total fluorescence; inactive = total fluorescence flat and polarisation flat or rising; no compound was filed as active; the % refers to the polarisation; negative = inhibition;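 further: % of control where 0% means no effect; inhibitors lower the polarisation; unlabelled MLL peptide was the positive control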
ClpP mod – qHTS Assay for Activators of ClpP. purified B. subtilis ClpP, FRET peptide cleavage, 20 min. Potency, µM (titrated, usually from 57.5 µM), without a hit: at the highest dose activity change, negative = active. 1.9% of 340,000 active; active = well fitted falling curve with a large enough effect; inconclusive = small, poorly fitted or top-dose-only effect; inactive = no such curve, though single readings can be large or run the other way; further: potency means the concentration at half of the fitted maximal effect; the source files actives as falling curves though it sought activators and does not explain the sign; nearly all actives have a fitted effect of over 65% in size; many hits overshoot -100%
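Buffer: 100 mM Tris/HCl pH8, 100 mM KCl, 0.05% low protease BSA, 2.5% glycerol, 0.01% Tween-20. ClpP 10 microg/mL final; 20 min RT; delta FRET normalized to ADEP and DMSO controls.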
The depositor's hits bear a star; ? = inconclusive; . = not tested or not shown; [ ] = remark or other dose.

SMILES	Sfp inh	TRPV1 potentiator	gsp antagonist	gsp ag	CtBP-E1A blk	Menin-MLL FL inh	ClpP mod
O=C(COc1ccc(Cl)cc1Cl)NCc1ccncc1	2%	-8	8%	-93%	-14	0.7	0.6%
CCCCCOC(=O)NC1CCS(=O)(=O)C1 (configuration not stated)	24%	14	14%	0%	12	-3.6	-0.5%
O=C(Nc1ccnn1C1CCN(Cc2cccc(OCCO)c2)CC1)C1CCOC1 (configuration not stated)	11%	12	-2%	?	5	.	-1.3%
CCn1c(CNc2cccc(Cl)c2)nnc1SCC(=O)OC1CCCCC1	-5%	18	-10%	-1%	6	-0.7	-1.5%
Clc1ccc(-c2c[n+](Cc3ccc(Br)cc3)c3n2CCCCC3)cc1	-17%	22	8%	1%	3	0.4	.
Cc1ccccc1C(=O)Nc1ccc(O)cc1C(=O)O	15%	10	4%	2%	.	-2.6	-1.8%
O=C(COc1ccc2c3c(c(=O)oc2c1)CCCC3)N[C@@H](Cc1ccccc1)C(=O)O	-16%	0	-2%	.	-8	-1.0	4.8%
COc1ccc(-c2cc(C(F)F)n3ncc(C(=O)Nc4cc(C)on4)c3n2)cc1	79µM*	-18	?	11%[15.4 µM]	-5	16	.
O=C1C=CC(c2ccccc2)(c2ccccc2)CC1	.	.	-3%	-16%	4	.	.
COc1cccc(NC(=O)c2ccc(-n3cnnn3)cc2)c1	15%	-17	8%	2%[15.4 µM]	?	2.1	.
Cc1ccc2[nH]c3c(N4CCCCCC4)ncnc3c2c1	-15%	-15	.	.	.	2.5	.
CCN(CC)CCn1c(SCC(=O)Nc2cccc(OC)c2)nc2c(sc3ccccc32)c1=O	-2%	4	-17%	-5%[15.4 µM]	-3	0.6	.

Laid out differently: results already given
SMILES,Sfp inh,TRPV1 potentiator,gsp antagonist,gsp ag,CtBP-E1A blk,Menin-MLL FL inh,ClpP mod
COc1cccc(NC(=O)c2ccc(-n3cnnn3)cc2)c1,15%,-17,8%,2%[15.4 µM],?,2.1,.
Cc1ccc2[nH]c3c(N4CCCCCC4)ncnc3c2c1,-15%,-15,.,.,.,2.5,.

The listing continues.
SMILES	Sfp inh	TRPV1 potentiator	gsp antagonist	gsp ag	CtBP-E1A blk	Menin-MLL FL inh	ClpP mod
COc1ccc(NC(=O)CN(C)C(=O)c2oc3c(ccc4ccccc43)c2C)cc1	.	-9	-28%	0%	-14	.	-12%
COc1ccc(C(=O)NCC(=O)N2CCN(c3ncccn3)CC2)cc1OC	.	3	15%	-21%	1	.	-12%
O=C(c1cc(-c2ccccn2)nc2ccccc12)N1CCN(c2ncccn2)CC1	9%	-6	-5%	2%	.	2.8	1.3%
NC(=O)c1ccsc1NC(=O)Cc1ccc([N+](=O)[O-])cc1	-3%	10	10%	-4%[15.4 µM]	8	2.6	.
CC1=C(C#N)C(=O)OC(C)(C)C1	-4%	2	13%	10%	-6	?	0.7%
Cc1ccc(NC(=O)c2cccc(S(=O)(=O)NCc3ccccc3)c2)nc1	.	11	5%	3%	0	.	0.6%
COc1cc(C(=O)N=c2sc3ccccc3n2C)cc(OC)c1OC	22%	-5	-6%	7%	.	4.1	?
O=C(NC1CCCc2ccccc21)c1c(F)cccc1Cl (configuration not stated)	7%	19	4%	11%[15.4 µM]	-1	-1.1	.
Cc1ccccc1N/N=C/c1c(C)nc2ccccn12	-7%	-3	-1%	?	-11	5.3	?
Cc1ccc(SCC(=O)Nc2ccccc2C(=O)N2CCOCC2)cc1	11%	-2	23%	-78%[inhibitor]	13	-1.5	0.8%
CCCc1cc(C(=O)NNC(=S)Nc2cccc(C)c2)cs1	9%	6	-2%	-7%	-18	1.3	4.7%
N#CCSc1nc2c(cc1C#N)CCCC2	?	0	25%	-6%	-6	-6.5	-0.1%

Complete entries as entered above.
Shown for O=C(NC1CCCc2ccccc21)c1c(F)cccc1Cl (configuration not stated) = Sfp inh: 7%; TRPV1 potentiator: 19; gsp antagonist: 4%; gsp ag: 11%[15.4 µM]; CtBP-E1A blk: -1; Menin-MLL FL inh: -1.1; ClpP mod: .
Shown for O=C(c1cc(-c2ccccn2)nc2ccccc12)N1CCN(c2ncccn2)CC1 = Sfp inh: 9%; TRPV1 potentiator: -6; gsp antagonist: -5%; gsp ag: 2%; CtBP-E1A blk: .; Menin-MLL FL inh: 2.8; ClpP mod: 1.3%
Shown for CCCCCOC(=O)NC1CCS(=O)(=O)C1 (configuration not stated) = Sfp inh: 24%; TRPV1 potentiator: 14; gsp antagonist: 14%; gsp ag: 0%; CtBP-E1A blk: 12; Menin-MLL FL inh: -3.6; ClpP mod: -0.5%

Entries above that contain a cyano group (2):
SMILES	Sfp inh	TRPV1 potentiator	gsp antagonist	gsp ag	CtBP-E1A blk	Menin-MLL FL inh	ClpP mod
CC1=C(C#N)C(=O)OC(C)(C)C1	-4%	2	13%	10%	-6	?	0.7%
N#CCSc1nc2c(cc1C#N)CCCC2	?	0	25%	-6%	-6	-6.5	-0.1%

Next part:
SMILES	Sfp inh	TRPV1 potentiator	gsp antagonist	gsp ag	CtBP-E1A blk	Menin-MLL FL inh	ClpP mod
O=c1cc(-c2cccc3ccccc23)[nH][nH]1	6%	?	4%	-9%	-1	0.9	-0.9%
O=c1c(C=Nc2ccc(Oc3ccccc3)cc2)c[nH]n1-c1cccc(Cl)n1	-7%	3	0%	16%	-2	2.5	3.3%
Cc1ccc(Cl)cc1NC(=O)c1cccc(OC(F)F)c1	2%	-8	-16%	-1%	-1	3.4	0.5%
COCCn1nnnc1C(c1ccccc1OC)N1CCN(c2ccccc2)CC1 (configuration not stated)	14%	2	5%	-3%	-3	4.0	-3.2%
Cc1cc(Oc2ccc(=O)n(C)n2)nc(SCC(N)=O)n1	10%	3	0%	3%	4	3.6	-1.6%
COc1ccc(CCN(C)C(=O)CSc2nc3ccccc3c(=O)n2CC2CCCO2)cc1OC (configuration not stated)	.	.	1%	4%	-15	.	-5.0%
CCCN1Cc2cccc(C(=O)N3CCN(c4cc(Cl)ccc4C)CC3)c2C1=O	3%	6	-13%	-44%[inhibitor]	0	2.2	-4.8%
Cc1ccc(Cl)c(OCC(=O)N2CCc3ccccc3C2)c1	7%	25	2%	1%	11	-1.8	2.7%
Cc1cc(OCC(=O)O/N=C(\N)c2ccccc2)ccc1Br	?	?	14%	0%	-4	-2.1	.
O=C(O)c1ccc(/C=N/Nc2cccc(C(F)(F)F)c2)cc1	10%	-5	-9%	-4%[15.4 µM]	9	-3.8	.
CCN(CC)S(=O)(=O)c1cccc(C(=O)c2c(C)cc3ccccn23)c1	-9%	6	?	-30%	.	-7.6	2.4%
O=C(NC(=S)Nc1ccc(CN2CCCCC2)cc1)c1ccco1	?	-7	-15%	-19%	-2	-1.8	.
O=C(c1ccc(N2CCCS2(=O)=O)cc1)N1CCN(c2ccc(F)cc2)CC1	13%	12	-2%	-19%	2	-2.7	.

Entries from the list above that have a furan ring, fused or not (2):
SMILES	Sfp inh	TRPV1 potentiator	gsp antagonist	gsp ag	CtBP-E1A blk	Menin-MLL FL inh	ClpP mod
COc1ccc(NC(=O)CN(C)C(=O)c2oc3c(ccc4ccccc43)c2C)cc1	.	-9	-28%	0%	-14	.	-12%
O=C(NC(=S)Nc1ccc(CN2CCCCC2)cc1)c1ccco1	?	-7	-15%	-19%	-2	-1.8	.

Screening results: PubChem, National Center for Advancing Translational Sciences (NCATS)

Rows were taken by chance (roughly 5.3% active in at least one column).
